# Rango dissoc inh – qHTS Assay for Inhibitors of RanGTP induced Rango (Ran-regulated importin-beta cargo) - Importin beta complex dissociation. Snurportin-1 (Homo sapiens) + GTP-binding nuclear protein Ran (Homo sapiens) + Importin …. AID 540253, 2011. Biochemical FRET Rango-importin beta, RanGTP-induced dissociation. Potency, µM (top dose mostly 46.1 µM), inactives show at the highest dose activity change, negative = inhibition. 340,000 compounds, 0.071% hits; active means falling FRET ratio curve, often poorly fitted, with flat reads before Ran was added; inconclusive means other falling curves, or compound fluorescence or quenching; inactive means flat or rising ratio curve;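 also: potency is read from the fitted curve at half-maximal effect; % of control where 0% means no effect; nearly all actives have a fitted effect of over 45% in size; -100% = wells without RanGTP and RCC1; the record marks most hits as doubtful in a second field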
#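 Rango/importin beta premix (0.1/0.25 uM final), PBS + 1 mM DTT + 0.02% Tween-20 + 0.1% BSA; cpd 5 min RT; FRET pre-read; + RanGTP-RCC1 (0.6 uM Ran, 2 mM GTP, 0.2 uM RCC1); 45 min RT; FRET post-read, ex 430, em 486/530 nm.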
# GLA inh pH 4.5 – qHTS Assay for Inhibitors of Human alpha-Galactosidase at pH 4.5 | 230,000 tested, under 10 active | purified enzyme, 4-MU-alpha-Gal fluorescence, pH 4.5 | activity change, negative = inhibition, % at 105 µM; inconclusive = small, poorly fitted or top-dose-only inhibition, or a rising curve; inactive = flat fitted curve, though single readings scatter; no compound was filed as active;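 also: 0% = full activity with enzyme and -100% = basal without enzyme; dose as in the result columns while the protocol names 77 µM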
# Target sequence (P06280 whole entry, looked up): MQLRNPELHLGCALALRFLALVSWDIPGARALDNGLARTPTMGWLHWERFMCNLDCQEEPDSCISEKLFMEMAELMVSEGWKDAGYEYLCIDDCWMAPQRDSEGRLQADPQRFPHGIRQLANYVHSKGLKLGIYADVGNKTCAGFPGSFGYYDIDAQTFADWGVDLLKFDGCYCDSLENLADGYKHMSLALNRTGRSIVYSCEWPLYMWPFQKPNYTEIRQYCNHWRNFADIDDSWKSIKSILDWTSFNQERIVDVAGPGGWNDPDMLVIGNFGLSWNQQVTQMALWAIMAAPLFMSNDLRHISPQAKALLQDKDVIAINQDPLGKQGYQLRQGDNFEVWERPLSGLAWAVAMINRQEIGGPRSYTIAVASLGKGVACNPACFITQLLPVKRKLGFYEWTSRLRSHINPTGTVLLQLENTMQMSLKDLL
# Rango-impB inh – qHTS Assay for Inhibitors of Rango (Ran-regulated importin-beta cargo) - Importin beta complex formation; Rango CFP/YFP FRET sensor + importin beta, 45 min; Potency, µM (series often up to 92.2 µM), for the others: at the top dose inhibition of complex formation; 340,000 compounds, 0.031% hits; AID 540263, 2011; active = rising FRET ratio curve, often small or poorly fitted; inconclusive = mostly compound fluorescence or quenching in the first reads; inactive = flat curves in all reads;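 also: potency is read from the fitted curve at half-maximal effect; 0% = DMSO wells and 100% = buffer wells lacking importin beta; nearly all actives have a fitted effect of over 15% in size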
#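 FRET biosensor Rango (snurportin 1 IBB between N-terminal EYFP and C-terminal Cerulean), 50 nM in PBS/1 mM DTT/0.02% Tween-20/0.1% BSA, preincubated 5 min RT with compound; 0.125 microM importin beta added, 45 min RT, CFP/YFP FRET ratio read.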
# miR-21 reporter – qHTS Assay for Modulators of miRNAs and/orActivators of miR-21. HeLa miR-21 FLuc reporter, luciferase, 48 h. Potency, µM (series often up to 38.3 µM), without a hit: at the top dose reporter change, positive = more light. 340,000 tested, under 10 active. AID 2288, 2010; active = well fitted rising curve with a large enough effect; inconclusive = small, poorly fitted or top-dose-only effect; inactive = no such curve, though single readings can be large or run the other way;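 also: % of control where 0% means no effect; miR-21 action dims this reporter so a rising signal means less miR-21 action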
#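 HeLa cells stably expressing CMV-driven firefly luciferase with a downstream miR-21 binding sequence, endogenously expressing miR-21, were treated with titrations (up to about 40uM final) for 48 hours at 37 degree Celsius. Luciferase luminescence was read after lysis.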
# Active calls of the source: *; ? = inconclusive; . = no result given. Some of the compounds tested; the hit share may differ from the screen's.
SMILES,Rango dissoc inh,GLA inh pH 4.5,Rango-impB inh,miR-21 reporter
O=C(Nc1ccccc1O)c1ccc([N+](=O)[O-])cc1,11%,.,5.6%,-37%
COc1ccc(Cl)cc1NC(=O)CSc1nc(N2CCCCC2)nc(N2CCCCC2)n1,1%,3,-2.7%,-3%
CC(=O)N1c2ccc(S(=O)(=O)N3CCC(C(=O)NC4CCCC(C)C4C)CC3)cc2CC1C (stereo not given),29%,.,-3.9%,-1%
Cc1cc(C(=O)NCC2CCCCC2)ccc1[N+](=O)[O-],-23%,.,3.9%,-34%
O=C(CN(C(=O)CNC(=O)c1cccs1)c1cccc(F)c1)NC1CCCC1,-1%,.,-0.2%,1%
CC(C)(C)OC(=O)NCCCCCNC(=O)c1nc[nH]c1C(=O)NCCCCCNC(=O)OC(C)(C)C,-5%,.,1.3%,.
Cc1c(C(=O)Nc2ccc3oc(-c4cccnc4)nc3c2)oc2ccccc12,-1%,0,-1.3%,0%
Cc1ccc(NC(=O)C2CCN(c3ncnc4c3nc3n4CCCCC3)CC2)nc1,-15%,.,5.6%,14%
CN1C(=O)NC(c2ccc(O)cc2)C2=C1CN(c1cccc3ccccc13)C2=O (stereo not given),?,.,-2.7%,-18%
N#Cc1ccccc1OCC(=O)NC(N)=O,2%,3,-2.4%,-3%
CCC1CCCCN1C(=O)c1ccc(OC2CCN(C(=O)C3CC3)CC2)cc1 (stereo not given),1%,8,-0.7%,3%
Clc1ccc2oc(-c3ccccc3)cc(=NCCCN3CCOCC3)c2c1,-16%,-4,0.3%,-77%
COc1ccc(C2=NN(C(=O)CSc3nc(=O)n4cc(C)ccc4n3)C(c3ccc(C)cc3)C2)cc1 (stereo not given),8%,.,?,.
Cc1cccc(-c2nnc(SCc3ccc(C#N)cc3)n2Cc2ccco2)c1,-3%,-4,-4.5%,11%
COc1ccccc1CNC(=O)c1ccc(Cl)c(NC2=NC3CS(=O)(=O)CC3S2)c1 (stereo not given),2%,.,2.4%,-2%

# 4 entries from above, reformatted:
# Values run as follows: Rango dissoc inh | GLA inh pH 4.5 | Rango-impB inh | miR-21 reporter
COc1ccccc1CNC(=O)c1ccc(Cl)c(NC2=NC3CS(=O)(=O)CC3S2)c1 (stereo not given)
→ 2% | . | 2.4% | -2%
Cc1ccc(NC(=O)C2CCN(c3ncnc4c3nc3n4CCCCC3)CC2)nc1
→ -15% | . | 5.6% | 14%
Cc1cc(C(=O)NCC2CCCCC2)ccc1[N+](=O)[O-]
→ -23% | . | 3.9% | -34%
Clc1ccc2oc(-c3ccccc3)cc(=NCCCN3CCOCC3)c2c1
→ -16% | -4 | 0.3% | -77%

# Next section.
SMILES,Rango dissoc inh,GLA inh pH 4.5,Rango-impB inh,miR-21 reporter
CCc1sc(C(=O)Nc2nc(-c3ccccn3)cs2)cc1C,-2%,.,1.4%,.
COC(=O)c1cc(NC(=S)NC(=O)c2ccccc2)ccc1N1CCOCC1,0%,.,5.7%,-6%
CCC(=O)c1cn(CC(=O)Nc2ccccc2F)c2ccccc12,2%,.,0.1%,1%
CN(Cc1ccccc1)S(=O)(=O)c1ccc(OCC(=O)N2CCOCC2)cc1,0%,-16,4.0%,-1%
Cc1cc(S(=O)(=O)NC2CCCCC2)ccc1OCC(=O)N1CCOCC1,18%,2,-0.9%,1%
N#Cc1cc2c(nc1Cl)CCCC2,16%,3,-0.3%,-9%
CN1CCN(C(=O)c2c(NC(=O)c3ccco3)sc3c2CCC(C(C)(C)C)C3)CC1 (stereo not given),-5%,-5,0.1%,-2%
COC(=O)C1=C(C)NC(=O)CC1c1cccc(Cl)c1Cl (stereo not given),4%,-5,5.6%,-13%
COc1cccc(CN2CCN(CCCc3ccccc3)C(CCO)C2)c1OC (stereo not given),2%,.,-2.8%,5%
COc1ccc(S(=O)(=O)NC2CCCC2)c(Cl)c1Cl,-15%,-4,9.0%,-6%
O=C(Nc1cccc([N+](=O)[O-])c1)c1ccc2c(c1)OCO2,?,-2,?,-51%
CC(NC(=O)[C@H](Cc1c[nH]c2ccccc12)NC(=O)[C@@H]1Cc2ccccc2CN1)c1ccccc1 (stereo not given in full),-15%,.,-0.7%,-1%
O=C(Nc1nc2ccc(F)cc2s1)C1=COCCO1,12%,.,3.8%,.
CC12CN3CC(=O)N4CC5(C)CN(CC(C)(C4)C5=O)C(=O)CN(C1)CC(C)(C3)C2=O,-11%,0,5.2%,0%
S=C1N(c2ccccc2)C(c2ccc(Cl)cc2)N2CCCN12 (stereo not given),0%,3,-4.9%,0%
O=C(NCCOc1ccc(F)cc1)C1CCC(=O)N(CC2CCCCC2)C1 (stereo not given),-25%,.,0.8%,3%
O=C(CS(=O)(=O)c1ccc(Cl)cc1)NCCS(=O)(=O)c1ccc(Cl)cc1,31%,-3,4.7%,-1%
CC(C)=CC(=O)OCC(=O)NC1CCCc2ccccc21 (stereo not given),27%,-17,5.4%,-4%
CCC(C)NC(=O)c1cn(CC)c2ccc(S(=O)(=O)N(C)C)cc2c1=O (stereo not given),-8%,8,-0.8%,-4%
Cc1cc(=O)[nH]c(SCC2(O)C3CC4CC(C3)CC2C4)n1 (stereo not given),-13%,0,0.1%,-10%
Cc1ccc(Cl)c2c1=NC(=O)C=2c1[nH]c(=S)[nH]c1O,3%,2,0.4%,5%
Fc1ccccc1-c1cc2ccccc2cn1,-24%,.,0.5%,.
O=C(CCSCc1ccccc1F)NCCc1ccccc1,1%,2,3.0%,-13%
CCOc1ccc(C(=O)NC2CCN(S(=O)(=O)CC)CC2)cc1,-3%,-2,-1.7%,-9%
N#Cc1c(N)n(CCOC(=O)c2cccc([N+](=O)[O-])c2)c2nc3ccccc3nc12,?,-4,0.0%,5%
Cc1ccc(NC(=O)CSCC(=O)Nc2ccc(S(=O)(=O)N3CCOCC3)cc2)cc1,-9%,.,-2.1%,-3%
COCC(C)NS(=O)(=O)c1ccccc1 (stereo not given),4%,6,0.3%,-1%
Cc1cc([N+](=O)[O-])ccc1NCc1ccc2c(c1)OCCO2,-8%,.,-0.3%,-20%
CCOc1ccc(OCc2nnc(SCC(=O)NC3CCS(=O)(=O)C3)n2-c2ccc(Cl)cc2)cc1 (stereo not given),-12%,-26,-0.3%,-5%
CCC1CCCCN1CCCNC(=O)C1CCC(CNS(=O)(=O)c2c(C)cc(C)cc2C)CC1 (stereo not given),4%,.,0.1%,0%

# Fetched one by one from the list above (3):
SMILES,Rango dissoc inh,GLA inh pH 4.5,Rango-impB inh,miR-21 reporter
Fc1ccccc1-c1cc2ccccc2cn1,-24%,.,0.5%,.
O=C(CCSCc1ccccc1F)NCCc1ccccc1,1%,2,3.0%,-13%
COCC(C)NS(=O)(=O)c1ccccc1 (stereo not given),4%,6,0.3%,-1%

# Going on with the list.
SMILES,Rango dissoc inh,GLA inh pH 4.5,Rango-impB inh,miR-21 reporter
Cc1cc(C)c(S(=O)(=O)N2CCCC(C(=O)NCc3ccccn3)C2)c(C)c1 (stereo not given),0%,.,2.6%,2%
O=c1cc(S(=O)(=O)Cc2ccccc2)[nH]c(=O)[nH]1,-2%,.,-0.9%,.
Cn1c(CCC(N)=O)nnc1SCC(=O)Nc1ccccc1C(=O)NC1CC1,-11%,.,0.6%,.
COCCCn1c(=O)c2sccc2n2c(CCCC(=O)N3CCN(c4ccccn4)CC3)nnc12,-14%,.,-1.1%,0%
Cc1ccc(-c2nnc(Nc3ccc(C(=O)N(C)C)cc3)c3ccccc23)cc1S(N)(=O)=O,1%,.,-0.1%,1%
Cc1cc(C)c(NC(=O)CSc2nc3[nH]ncc3c(=O)[nH]2)c(C)c1,-4%,0,6.5%,10%
CCN(CC(=O)NCc1cccs1)C(=O)C1CC(=O)N(c2ccc(OC)cc2OC)C1 (stereo not given),8%,.,-2.6%,.
O=[N+]([O-])c1ccc(-c2c(-c3ccccc3)ncc3cc(F)ccc23)cc1,13%,.,?,.
O=C1/C(=C/c2ccc(O)c(O)c2)SC(=S)N1Nc1ccccc1,0%,-8,37µM*,-2%
Cc1ccc(OCCNS(=O)(=O)c2cccs2)cc1,0%,-3,1.2%,-40%
COc1ccc(CC(=O)Nc2ccc(-c3nnc(-c4ccc(C)cc4)o3)cc2)cc1,6%,-4,-1.5%,-3%
CN(C)CCn1c(=S)[nH]c2ccc(Cl)cc2c1=O,-6%,8,-1.0%,3%
COc1ccc(C(=O)Nc2cccc(C)c2)cc1S(=O)(=O)N1CCOCC1,8%,0,0.1%,-2%
COC(=O)N/N=C/c1cc(Cl)cc(Cl)c1OCc1ccccc1,-3%,-7,2.6%,-2%
c1ccc(Cn2nnnc2CN2CCCC2)cc1,4%,0,5.6%,-8%
COc1ccc(C=NNC(=O)c2cc(C)oc2C)cc1O,2%,.,-3.3%,.
Cc1cccc(N=Cc2cc(Br)cc(Cl)c2O)c1,?,-11,?,-3%
CCCCP(=O)(CCCC)Cc1ccccc1,-10%,8,?,-1%
Cc1ccccc1NC(=O)C1CCCN(S(=O)(=O)c2cccc3cccnc23)C1 (stereo not given),1%,-18,-2.3%,6%
CCCCc1nc2cc(C(=O)NCCc3c(C)n[nH]c3C)ccc2o1,3%,.,-2.6%,.
COc1ccccc1N1CCN(C(=S)Nc2ccccc2)CC1,-8%,.,-4.5%,-23%
CCOc1ccccc1N1CCN(C(=O)c2ccc(OCC(=O)N3CCOCC3)c(OC)c2)CC1,-7%,.,-5.1%,-1%
O=[N+]([O-])c1cc(C(F)(F)F)ccc1NCCNC(=S)Nc1ccc(Cl)cc1,9%,-2,0.1%,?
CCN1CCS/C1=C\C=C\C1=[N+](CC)CCS1,?,?,?,?
COc1nc(N(C)S(=O)(=O)c2ccc(C)cc2)nc(C)c1Cl,-7%,2,-1.2%,-5%
O=C(Cn1c(=O)cnc2ccccc21)NC1CCC(O)CC1 (stereo not given),-12%,.,-0.2%,.
COc1ccccc1Cn1cccc1C=O,-8%,5,?,4%
C=CCNC(=O)NC(=O)COC(=O)C(C)Oc1ccc(Cl)cc1Cl (stereo not given),-20%,2,2.9%,3%
COc1ccc(NS(=O)(=O)c2ccc(NC(=S)NCC3CCCO3)cc2)cc1 (stereo not given),-2%,.,0.0%,8%
COCCCn1c(SCC(=O)Nc2ccc(C(=O)OC)cc2)nc2ccccc2c1=O,9%,4,3.1%,-4%
COC(=O)c1c(NC(=O)C2CCC2)sc(C(=O)N(C)C)c1C,20%,3,0.0%,-12%
CCN(C[C@H]1N[C@@](CC)(C(=O)OC)[C@H]2C(=O)N(Cc3ccccc3)C(=O)[C@@H]12)C(=O)COC,-5%,.,-0.5%,.
CCc1noc(C)c1C(=O)OC(C)C(=O)Nc1ccc2c(c1)OCO2 (stereo not given),6%,.,-0.7%,.
O=C(NC1=NCCS1)C1CCN(S(=O)(=O)c2ccc(Cl)cc2)CC1,16%,.,1.5%,.
CCN1CCc2c(sc(NC(=O)c3ccc(C(=O)c4ccccc4)cc3)c2C(N)=O)C1,?,.,?,11%
COc1ccccc1-n1c(-c2cccnc2)n[nH]c1=S,0%,-3,0.3%,-6%
Cc1cccc(NC(=O)COC(=O)c2ccc3c(c2)OCO3)c1C,20%,-2,2.2%,-1%
Cc1nn(-c2ccccc2)c(C)c1NS(=O)(=O)c1ccccc1,1%,-6,0.6%,24%
CC(=O)c1ccc(OCCCC(=O)Nc2ccc(Cl)c(S(=O)(=O)N3CCOCC3)c2)cc1,25%,.,3.5%,.
COc1cc(O)c(C(C)=O)c(OC)c1,-9%,6,0.4%,.
O=C(NN=Cc1cc(=O)[nH]c(=O)[nH]1)c1ccncc1,1%,.,3.6%,.
Cc1cccc(S(=O)(=O)N/N=c2\sc3ccccc3n2C)c1,21%,4,-1.9%,-20%
COc1ccc(-c2nc(C#N)c(NCc3ccc(F)cc3)o2)cc1OC,2%,3,-0.1%,-15%
C=CCN1C(=O)C(O)(CC(=O)c2ccccc2)c2ccccc21 (stereo not given),13%,1,-1.1%,-3%
